Bioassay records from PubChem BioAssay.
A1 inh: inducers of caspase activity in MEF A1-2A-BIM cells, primary screen, A1 inhibitor project, cell-based, CaspaseGlo luminescence. caspase-Glo luminescence, 3 h; percent of clofoctol signal, DMSO as zero. 21,000 compounds, 0.51% hits. AID 2241, 2010. caspase activation, % (test concentration not listed);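 active means most replicate scores above 10, or exactly half above 10 with mean activity above 10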;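 further: effector caspase 3 and 7 activity cleaving a DEVD luciferin substrate; 50 nL library stock added to about 30 µL; numbers are from one replicate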
BJeLR viability: BJeLR cell viability loss, primary screen, luminescence, CellTiterGlo ATP; BJeLR fibroblasts viability, 48 h; HRASV12, hTERT and SV40 LT/ST transformed; viability loss activity score, % (no concentration beside the values); 30,000 compounds, 0.64% hits; in the data active means viability loss activity score above about 50%; about a fifth of its hits are not listed in these tables;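 further: higher score means fewer live cells and less ATP luminescence; stock transfer was 50 or 100 nL into about 30 µL; 0% = vehicle wells and 100% = a reference killing control; one replicate is shown; the record names a cut of 85%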
Active calls of the source: *. Only part of the results is shown, so the mix of outcomes need not match the whole.

Results for C[C@@H]1CN([C@H](C)CO)C(=O)c2cccc(NC(=O)c3ccc(-c4nccs4)cc3)c2O[C@@H]1CN(C)Cc1ccncc1 ?
BJeLR viability: -0.9

What do the screens show for `C[C@H](CO)N1C[C@H](C)[C@@H](CN(C)Cc2ccncc2)Oc2c(NS(=O)(=O)c3ccc(Cl)cc3)cccc2C1=O`?
BJeLR viability: -1.1

Results for O=C(CC(c1ccccc1)c1ccccc1)NC1CCCC1 ?
A1 inh: 0.6; BJeLR viability: 1.3

How did CCC(Sc1ncccc1C(=O)O)C(=O)N1CCCC1 (stereo not given) do in these assays?
A1 inh: 0.8; BJeLR viability: -7.4

Results for CCn1c(C)[n+](CC)c2ccc(S(=O)(=O)NC)cc21 ?
BJeLR viability: -1.1

What do the screens show for `O=C(NCC(c1ccc[nH]1)C(F)(F)F)Nc1ccccc1` (stereo not given)?
A1 inh: -1.0; BJeLR viability: 5.4

How did Cc1ccc(S(=O)(=O)N(C)C[C@@H]2Oc3c(NS(=O)(=O)c4c(C)noc4C)cccc3C(=O)N([C@H](C)CO)C[C@@H]2C)cc1 do in these assays?
BJeLR viability: -6.0

How did CCN1C(=O)C(=Cc2cccn2-c2ccc(O)cc2)C(=O)N(CC)C1=S do in these assays?
A1 inh: 0.0; BJeLR viability: -4.2

What do the screens show for `O=C(Nc1cccc(-c2nc3ccccc3c(=O)o2)c1)C1CCCCC1`?
A1 inh: -0.3; BJeLR viability: -0.7

Results for O=C(NC1CCCC1)c1ccc(-n2c(-c3ccccc3)cc3c2CCCC3)cc1 ?
A1 inh: -0.1; BJeLR viability: 1.1

Results for Cc1cc(C)c(C#N)c(Sc2ncnc3c2sc2nc(C)cc(C)c23)n1 ?
A1 inh: 0.5; BJeLR viability: 1.8

How did O=C(Cn1cc(C(=O)C2CC2)c2ccccc21)NCc1cccs1 do in these assays?
BJeLR viability: -1.2

How did Cc1[nH]c2ccc(CN3C(=O)c4ccccc4C3=O)cc2c1C do in these assays?
A1 inh: 0.2; BJeLR viability: -0.4

How did CCC(C)(NC(C)=O)C(=O)NC(Cc1c[nH]c2ccccc12)C(=O)NC(CCC(N)=O)C(=O)O (stereo not given) do in these assays?
A1 inh: -0.2; BJeLR viability: 3.2

How did CCN(CC)c1ncnc2c1[nH]c1ccc(C)cc12 do in these assays?
A1 inh: -1.1; BJeLR viability: 12.3

How did COc1ccc(CN(C)C[C@H]2Oc3ccc(NC(=O)Nc4ccccc4)cc3C(=O)N([C@@H](C)CO)C[C@H]2C)cc1 do in these assays?
A1 inh: 0.5; BJeLR viability: -5.3

How did COc1cc(C(=O)NCc2ccccc2)cc(OC)c1OC do in these assays?
A1 inh: 1.8; BJeLR viability: 1.7

What do the screens show for `COc1ccccc1CCNS(=O)(=O)c1ccc(C(=O)O)n1C`?
BJeLR viability: 0.7

What do the screens show for `Fc1cc(F)c(NC(=S)N2CCOCC2)c(F)c1`?
A1 inh: -0.1; BJeLR viability: 0.8

What do the screens show for `CC(Oc1ccc2c3c(c(=O)oc2c1)CCC3)C(=O)c1ccccc1` (stereo not given)?
A1 inh: -2.2; BJeLR viability: 3.1

How did CCOC(=O)c1cnc2c(OC)cccc2c1NC1CCCCC1 do in these assays?
A1 inh: -1.5; BJeLR viability: 10.6

What do the screens show for `C[C@@H]1CN([C@H](C)CO)C(=O)c2cccc(NS(=O)(=O)c3ccccc3)c2O[C@H]1CN(C)Cc1ccc(-c2ccccc2)cc1`?
BJeLR viability: 2.3

What do the screens show for `CCOC(=O)c1sc(-c2ccccc2)nc1OCc1c(Cl)cccc1Cl`?
A1 inh: 1.0; BJeLR viability: 2.0

How did C[C@H](CO)N1C[C@H](C)[C@@H](CN(C)Cc2ccc(Oc3ccccc3)cc2)Oc2ccc(NC(=O)Nc3cccc4ccccc34)cc2C1=O do in these assays?
A1 inh: -0.1; BJeLR viability: -1.2

What do the screens show for `Cc1cccc(N2CCN(C(=O)C(NS(=O)(=O)c3cccc4nsnc34)C(C)C)CC2C)c1` (stereo not given)?
BJeLR viability: -2.5

What do the screens show for `COc1ccc(NC(=O)N(C)C[C@H]2Oc3ccc(NC(=O)NC4CCCCC4)cc3C(=O)N([C@H](C)CO)C[C@H]2C)cc1`?
A1 inh: 1.0; BJeLR viability: -1.2

What do the screens show for `O=C(CSc1ccc2nnc(-c3ccccn3)n2n1)c1ccccc1`?
A1 inh: 1.0; BJeLR viability: -1.4

What do the screens show for `O=C(NCc1ccc(S(=O)(=O)NCCN2CCCC2)s1)c1ccc(Cl)cc1`?
A1 inh: 0.4; BJeLR viability: 1.9

What do the screens show for `CC(C)NS(=O)(=O)c1ccc(OCC(=O)N2CCC(Cc3ccccc3)CC2)cc1`?
A1 inh: -0.4; BJeLR viability: 2.5

Results for CC(=Nc1ccccc1C(F)(F)F)c1cccs1 ?
A1 inh: -1.0; BJeLR viability: 3.9

Results for CCOc1ccc(NC(NC(=O)c2cccs2)C(=O)c2ccccc2)cc1 (stereo not given) ?
BJeLR viability: 0.9

Results for CN(C)c1cc(O)c(C(=S)Nc2ccccc2)c(N(C)C)c1 ?
A1 inh: -0.4; BJeLR viability: 2.5

What do the screens show for `Cc1cccc(N2CCC(N=CN3CCOCC3)=N2)c1`?
A1 inh: -0.4; BJeLR viability: 0.2

Results for CNC[C@H]1Oc2c(NS(=O)(=O)c3ccc(F)cc3)cccc2C(=O)N([C@@H](C)CO)C[C@@H]1C ?
BJeLR viability: -1.4

Results for O=C(CN1C(=O)CSC1=O)Nc1ccccc1N1CCOCC1 ?
BJeLR viability: 1.4

How did C[C@@H]1CN([C@@H](C)CO)C(=O)c2cccc(NC(=O)c3nc4ccccc4s3)c2O[C@H]1CN(C)CC1CC1 do in these assays?
BJeLR viability: -3.7

Results for C[C@@H]1CN([C@@H](C)CO)C(=O)c2cc(NC(=O)CCN3CCOCC3)ccc2O[C@H]1CN(C)Cc1ccncc1 ?
A1 inh: 0.4; BJeLR viability: -1.7

What do the screens show for `C[C@H](CO)N1C[C@H](C)[C@H](CN(C)CC2CCCCC2)Oc2c(NC(=O)c3nc4ccccc4s3)cccc2C1=O`?
BJeLR viability: -1.3

Results for O=c1c(Cl)c(NCc2ccco2)cnn1-c1ccccc1 ?
A1 inh: 0.2; BJeLR viability: 2.1

What do the screens show for `O=C(O)c1ccccc1C(=O)N1CCc2ccccc21`?
A1 inh: 0.3; BJeLR viability: 2.6

What do the screens show for `CC(C)CCNC(=O)c1cn(C)c2ccc(S(=O)(=O)N3CCC(C)CC3)cc2c1=O`?
BJeLR viability: 2.0

Results for COc1ccc(NC(=O)Nc2ccc3c(c2)C(=O)N([C@@H](C)CO)C[C@@H](C)[C@@H](CN(C)CC2CCCCC2)O3)cc1 ?
A1 inh: 0.3; BJeLR viability: 0.2

What do the screens show for `Cc1ccc(NC(=S)NCC2CCCO2)cc1` (stereo not given)?
A1 inh: -0.4; BJeLR viability: 4.3

How did Cc1cc(=O)oc2c3c(ccc12)O/C(=C/C=C/c1ccccc1)C3=O do in these assays?
A1 inh: -0.7; BJeLR viability: -1.7

What do the screens show for `C[C@H]1CN([C@@H](C)CO)C(=O)c2cc(NS(=O)(=O)c3ccccc3)ccc2O[C@H]1CN(C)C(=O)NC1CCCCC1`?
A1 inh: -0.1; BJeLR viability: -0.3

What do the screens show for `C[C@H](CO)N1C[C@H](C)[C@@H](CN(C)S(=O)(=O)c2cccs2)Oc2c(NS(C)(=O)=O)cccc2C1=O`?
BJeLR viability: -27.7

Results for C[C@H](CO)N1C[C@H](C)[C@@H](CN(C)C(=O)Nc2ccc(F)cc2)Oc2c(NC(=O)Nc3ccccc3)cccc2C1=O ?
BJeLR viability: -2.7

How did C[C@@H]1CN([C@H](C)CO)C(=O)c2cccc(NC(=O)Nc3ccccc3)c2O[C@H]1CN(C)C(=O)Nc1ccc(F)cc1 do in these assays?
BJeLR viability: -1.2

What do the screens show for `O=C(COc1ccccc1Cl)N1CCCc2ccccc21`?
BJeLR viability: 2.7

How did O=C(O)c1c2c(nc3ccccc13)CSc1ccc(Cl)cc1-2 do in these assays?
A1 inh: 0.0; BJeLR viability: 1.7

Results for CC1OC(Oc2cc(O)c3c(=O)cc(-c4ccc(O)cc4)oc3c2C2OC(CO)C(O)C(O)C2O)C(O)C(O)C1O (stereo not given) ?
A1 inh: 0.4; BJeLR viability: -6.8

Results for COc1ccc(CN(C)C[C@H]2Oc3c(NC(=O)c4cnccn4)cccc3C(=O)N([C@H](C)CO)C[C@@H]2C)cc1 ?
BJeLR viability: 13.7

Results for COc1ccc(NC(=O)Nc2cccc3c2O[C@H](CN(C)S(=O)(=O)c2ccc(C)cc2)[C@@H](C)CN([C@@H](C)CO)C3=O)cc1 ?
BJeLR viability: 1.8

Results for O=C(O)CC1C(=O)N(c2ccccc2)C(=S)N1c1ccccc1 (stereo not given) ?
BJeLR viability: -0.2

Results for COc1ccc(NC(=O)Nc2cccc3c2O[C@@H](CN(C)C(=O)NC(C)C)[C@H](C)CN([C@@H](C)CO)C3=O)cc1 ?
BJeLR viability: -5.4

How did C[C@H]1CN([C@@H](C)CO)C(=O)c2cccc(NC(=O)c3ccncc3)c2O[C@@H]1CN(C)Cc1ccc(-c2ccccc2)cc1 do in these assays?
BJeLR viability: -0.3

What do the screens show for `C[C@H]1CN([C@@H](C)CO)C(=O)c2cccc(NC(=O)Nc3ccccc3)c2O[C@@H]1CN(C)Cc1ccccc1`?
BJeLR viability: 16.1

What do the screens show for `C[C@H](CO)N1C[C@H](C)[C@H](CN(C)S(=O)(=O)c2cn(C)cn2)Oc2ccc(NC(=O)Nc3ccc4c(c3)OCO4)cc2C1=O`?
A1 inh: 0.0; BJeLR viability: -2.8

Results for Nc1ccc(C(=O)Nc2ccc(O)c(-c3nc4ccccc4o3)c2)cc1 ?
A1 inh: 0.4; BJeLR viability: -3.3

Results for Cc1noc(C)c1S(=O)(=O)Nc1ccc2c(c1)C(=O)N([C@@H](C)CO)C[C@@H](C)[C@H](CN(C)Cc1ccc(C(=O)O)cc1)O2 ?
A1 inh: -0.1; BJeLR viability: -2.2

Results for CCCCC/C=C\C/C=C\C/C=C\C/C=C\CCCC(=O)O ?
A1 inh: 0.2; BJeLR viability: -3.1

What do the screens show for `COC(=O)c1cnn2c(C)c(Cc3ccccc3)c(C)nc12`?
A1 inh: 0.5; BJeLR viability: 10.1

How did COc1ccc(CN(C)C[C@H]2Oc3ccc(NC(=O)NC4CCCCC4)cc3C(=O)N([C@H](C)CO)C[C@@H]2C)cc1 do in these assays?
A1 inh: -0.1; BJeLR viability: 3.1

What do the screens show for `CCOc1ccc2nc(N3CCCC(C(=O)Nc4ccc(C)cc4Cl)C3)sc2c1` (stereo not given)?
A1 inh: 0.3; BJeLR viability: -0.8

What do the screens show for `Cc1ccc(-c2nn(C)c(=O)c3ccccc23)cc1CNS(C)(=O)=O`?
BJeLR viability: -0.6

How did O=c1[nH]nc(SCc2nnc(-c3ccc(Cl)cc3)o2)n1C1CCCCC1 do in these assays?
A1 inh: 0.6; BJeLR viability: -2.4

Results for C[C@@H]1C[C@H]2OCC3=CCC[C@H]([C@]1(CC(O)c1ccoc1)C(=O)O)[C@]32CO (stereo not given in full) ?
A1 inh: -0.1; BJeLR viability: 92.0*

Results for C[C@H](CO)N1C[C@H](C)[C@@H](CN(C)S(=O)(=O)c2ccc(F)cc2)Oc2c(NC(=O)C3CC3)cccc2C1=O ?
BJeLR viability: 2.0

Results for CC(C)CCNC(=O)c1ccc2c(c1)N(Cc1ccccc1)CCS2 ?
A1 inh: 0.5; BJeLR viability: 0.2

What do the screens show for `COC(=O)NC(Nc1cccc(C(F)(F)F)c1)C(=O)c1ccccc1` (stereo not given)?
A1 inh: -0.2; BJeLR viability: 2.5

How did Cc1noc(C)c1NC(=O)N(C)C[C@@H]1Oc2ccc(NS(=O)(=O)c3ccc(F)cc3)cc2C(=O)N([C@@H](C)CO)C[C@H]1C do in these assays?
A1 inh: -0.1; BJeLR viability: -0.1

What do the screens show for `CCOc1ccc(C(=O)NCC(=O)n2nc(C)cc2C)cc1`?
A1 inh: -3.6; BJeLR viability: 0.9

What do the screens show for `CC(NC(=O)c1cc(=O)[nH]c2ccc(Br)cc12)c1ccc2c(c1)OCCO2` (stereo not given)?
A1 inh: 0.2; BJeLR viability: -2.4

How did CCOC(=O)CC1Sc2ccccc2N=C1SCC(=O)Nc1cccc(C(F)(F)F)c1 (stereo not given) do in these assays?
A1 inh: 0.8; BJeLR viability: 2.3

How did COc1cccc(NC(N)=O)c1 do in these assays?
A1 inh: 0.5; BJeLR viability: -1.2

How did CC(=O)Oc1ccc2occ(C(=O)c3ccc(Br)s3)c2c1 do in these assays?
A1 inh: -5.6; BJeLR viability: -1.1

What do the screens show for `CC1CCC(NC(=O)Cn2ncc3c4ccccc4n(Cc4ccccc4)c3c2=O)CC1` (stereo not given)?
A1 inh: 4.6; BJeLR viability: 2.0

Entries from the list above containing two or more sulfur atoms:
How did Cc1ccc(S(=O)(=O)N(C)C[C@@H]2Oc3c(NS(=O)(=O)c4c(C)noc4C)cccc3C(=O)N([C@H](C)CO)C[C@@H]2C)cc1 do in these assays?
BJeLR viability: -6.0

Results for Cc1cc(C)c(C#N)c(Sc2ncnc3c2sc2nc(C)cc(C)c23)n1 ?
A1 inh: 0.5; BJeLR viability: 1.8

What do the screens show for `Cc1cccc(N2CCN(C(=O)C(NS(=O)(=O)c3cccc4nsnc34)C(C)C)CC2C)c1` (stereo not given)?
BJeLR viability: -2.5

What do the screens show for `O=C(NCc1ccc(S(=O)(=O)NCCN2CCCC2)s1)c1ccc(Cl)cc1`?
A1 inh: 0.4; BJeLR viability: 1.9

What do the screens show for `C[C@H](CO)N1C[C@H](C)[C@@H](CN(C)S(=O)(=O)c2cccs2)Oc2c(NS(C)(=O)=O)cccc2C1=O`?
BJeLR viability: -27.7

How did CCOC(=O)CC1Sc2ccccc2N=C1SCC(=O)Nc1cccc(C(F)(F)F)c1 (stereo not given) do in these assays?
A1 inh: 0.8; BJeLR viability: 2.3
